Compound activity from PubChem.
TRPV1 PAM = human TRPV1 potentiation; Q8NER1; TRPV1-expressing cells, Fluo-8 calcium influx, capsaicin EC20 potentiation; host cell line not named in the record; control for the full effect not named in the record; potentiation, % at 8.33 µM; 320,000 tested, 0.02% active; active means potentiation above 80%; inconclusive means 30% to 80%; inactive means below 30%; further: 0% is about no effect
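Cells expressing TRPV1 were dye-loaded with Fluo-8 and read kinetically: 10 s baseline, 3 min after compound (agonist portion), then 2 min after EC20 capsaicin (allosteric enhancer portion). Calcium-bound dye fluorescence at 480/520 nm.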
PINK1 expr mod = PINK1 expression modulation | Potency, µM (titrated, usually from 76.6 µM), without a hit: at the highest dose activation (PINK1 increase), hits mostly activators | PINK1 immunofluorescence, high-content cytometry, 24 h | 410,000 tested, 0.2% active; active = well fitted activation curve with a large enough effect; inconclusive = small, poorly fitted or top-dose-only effect; inactive = flat fitted curve, though single readings scatter; cell line not stated here;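 further: potency means the concentration at half of the fitted maximal effect; % of control where 0% means no effect; nearly all actives have a fitted effect of over 65% in size; a mitochondrial uncoupler was the plate control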
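Fluorescence from anti-PINK1 antibody, together with nuclear and cell stains, was scanned on a laser-scanning cytometer. Before staining, stable-line cells were incubated 24 hours with compounds at 5 concentrations; primary antibody 12 h at 10 degrees C.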
Six1-Eya2 blk = blocks human Six1 binding to Eya2 | activity change, % (test concentration not listed) | 360,000 tested, 0.56% active | AlphaScreen GST-Six1/His-Eya2 binding, biochemical; hits give low values; control for the full effect not named in the record; in the data active = activity change below about -65%; inconclusive = about -30% to -65%; inactive = above about -30%; further: on the % scale 0 is the no-effect control and ±100 the full control effect; compound concentration not given in the record
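GST-Six1 + His-Eya2 (5X stock: 250/500 nM); Tris pH 8.0, 300 mM NaCl, 0.05% BSA, 0.02% Tween 20; GSH donor/Ni acceptor beads; 1 h 37 °C dark; AlphaScreen readout.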
CtBP-E1A blk = inhibitors of CtBP/E1A interaction; AlphaScreen GST-E1A/His-CtBP binding, 1536-well; hits give low values; control for the full effect not named in the record; activity change, % (no concentration beside the values); 340,000 tested, 0.49% active; in the data active means activity change below about -65%; inconclusive means about -30% to -65%; inactive means above about -30%; further: on the % scale 0 is the no-effect control and ±100 the full control effect; compound concentration not given in the record
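GST-E1A and His-tagged CtBP (125 nM each as 5X stock) were preincubated with pin-transferred compound for 2 h at 37 °C in the dark, then glutathione donor and nickel acceptor beads were added for 1 h before AlphaScreen reading.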
D2 ag = human D2 receptor agonism in beta-arrestin assay; P14416; DiscoveRx PathHunter D2 beta-arrestin, luminescence, 90 min; 100% = 57 uM dopamine signal; activation, % (test concentration not listed); 360,000 tested, 0.084% active; AID 624465; in the data active = activation above about 40%; inconclusive = about 15% to 40%; inactive = below about 15%; further: compound concentration not given in the record; the text of the record calls up to 30% inactive
Target sequence (P14416 whole entry, looked up): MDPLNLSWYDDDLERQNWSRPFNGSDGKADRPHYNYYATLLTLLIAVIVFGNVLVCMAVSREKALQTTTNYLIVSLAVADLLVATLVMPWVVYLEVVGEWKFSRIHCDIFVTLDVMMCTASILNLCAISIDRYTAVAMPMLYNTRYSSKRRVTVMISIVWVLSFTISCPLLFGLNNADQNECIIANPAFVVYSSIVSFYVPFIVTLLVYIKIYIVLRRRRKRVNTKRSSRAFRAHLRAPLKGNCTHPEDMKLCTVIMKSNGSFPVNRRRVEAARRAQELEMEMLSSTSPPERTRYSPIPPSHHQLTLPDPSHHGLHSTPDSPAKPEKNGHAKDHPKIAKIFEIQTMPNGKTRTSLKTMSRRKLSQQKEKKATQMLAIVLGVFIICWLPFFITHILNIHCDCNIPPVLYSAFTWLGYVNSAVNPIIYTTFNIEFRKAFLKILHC
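DiscoveRx PathHunter D2 beta-arrestin cells (2,100/well) attached overnight, then compound-stimulated 90 min at 37 C in HBSS/10 mM HEPES/0.1% Tween-20 buffer; beta-galactosidase complementation read by luminescence after 1 h at ambient temperature. Dopamine 57 uM final (EC100) as control.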
D2 potentiator = human D2 receptor positive allosteric modulation | P14416 | DiscoveRx D2 beta-arrestin cells, luminescence, 90 min; 100% = 57 uM dopamine signal | potentiation, % (no concentration beside the values) | 360,000 tested, 0.23% active | AID 624464; active = potentiation of 50% or more; inconclusive = 30% to 50%; inactive = 30% or less;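 further: compound concentration not given in the record; tested on top of an EC20 dose of dopamine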
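PathHunter D2 cells, attached overnight at 37 deg C, received compound in DMSO plus dopamine at EC20 (50 nM final) for 90 min at 37 deg C. Beta-arrestin recruitment was read as luminescence after 1 h with detection reagent at ambient temperature.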
Sfp PPTase inh = blocks B. subtilis Sfp PPTase activity; Potency, µM, inactives show max response, negative = inhibition, hits mostly inhibitors; Biochemical Sfp PPTase activity, qHTS; AID 1490; 310,000 tested, 3.5% active; active means well fitted inhibition curve with a large enough effect; inconclusive means small, poorly fitted or top-dose-only effect, or another doubt; inactive means no such curve, though single readings can be large or run the other way;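 further: the enzyme is Sfp with the accession as filed and its product quenches rhodamine fluorescence; potency means the concentration at half of the fitted maximal effect; 0% = enzyme reaction without inhibitor and -100% = no enzyme wells; top concentration of the series not given in the record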
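With Hepes-Na pH 7.6 buffer containing 10 mM MgCl2, Sfp (15 nM) modified BHQ-2-YbbR (12.5 uM) using rhodamine-CoA (5 uM). Two reads 30 minutes apart at 525/598 nm yielded each well's rate.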
Starred values were filed as active, the others as inactive; ? = inconclusive; . = no result given; & = joins results of further samples; [ ] = remark or other dose. Compounds were not picked by outcome; about 3.7% have a hit in one of these screens.

SMILES | TRPV1 PAM | PINK1 expr mod | Six1-Eya2 blk | CtBP-E1A blk | D2 ag | D2 potentiator | Sfp PPTase inh
Cc1ccc(-n2ncc3c(=O)n(Cc4cccnc4)cnc32)cc1 | -19 | 2.2% | -4 | -20 | 1.8 | 10 | 2%
Cc1ccccc1N=Nc1c(N)n[nH]c1N | -34 | -0.5% | -1 | . | -5.9 | -20 | 20%
O=S(=O)(c1cc(Br)c(Cl)s1)N1CCCC1 | -12 | 0.7% | 7 | . | 0.6 | 1 | 10%
Cc1ccc(-c2nnc(-c3cccs3)o2)cc1 | -7 | 0.9% | 4 | 16 | -2.3 | -13 | 1%
O=C(c1cc([N+](=O)[O-])ccc1Cl)N1CCN(c2ccccn2)CC1 | 0 | -0.4% | -2 | 0 | -1.3 | 2 | -6%
O=C(CS(=O)(=O)c1cn(Cc2ccc(Cl)cc2)c2ccccc12)N1CCCCC1 | -8 | 6.3% | 0 | 4 | -6.3 | 1 | 21%
C[C@H](CO)N1C[C@H](C)[C@@H](CN(C)C(=O)Nc2ccc3c(c2)OCO3)Oc2c(NC(=O)c3ccncc3)cccc2C1=O | . | -0.2% | 0 | . | 0.3 | 4 | .
CSc1ccc(Cl)c(C(=O)Nc2cc(S(=O)(=O)N3CCOCC3)ccc2N2CCOCC2)c1 | . | -0.2% | 6 | -4 | -2.0 | -21 | .
Cc1[nH]n(-c2ccccc2)c(=O)c1N=Nc1ccccc1C(=O)N1CCOCC1 | -5 | 4.8% | -11 | -2 | -1.8 | -4 | 4%
COCC(=O)Nc1ccc(N2CCOCC2)c(S(=O)(=O)Nc2ccccc2OC)c1 | . | -0.2% | 3 | . | 3.5 | -6 | .
O=C(NN=C1CCCC1)c1n[nH]c2c1CCCC2 | 0 | 10% | -1 | 1 | -5.6 | 0 | 14%
Cc1ccc(NC(=O)C(c2ccccc2)N2CCN(CC(=O)N3CCOCC3)CC2)cc1Cl (stereo not given) | 22 | -0.7% | -3 | -22 | -3.1 | -3 | .
COc1ccc(N(CC(=O)Nc2cccc(N(C)S(C)(=O)=O)c2)S(C)(=O)=O)cc1OC | -2 | . | 6 | -2 | -2.9 | -5 | 24%
COC(=O)c1ccc(C(=O)OC)nc1 | -2 | -2.3% | 1 | 6 | -0.8 | -11 | 24%
Cc1ccc(NC(=O)CCc2ccc(S(=O)(=O)NC3CCCCC3)cc2)cc1 | 11 | 6.0% | 13 | 2 | 2.6 | -15 | 21%
CC1(C)O[C@@H]2[C@H](O1)[C@@H](CO)O[C@H]2n1cnc2c(N)ncnc21 | 24 | -1.0% | 1 | 5 | -2.3 | 0 | .
CC(C)Oc1ccc(Cc2n[nH]c(=S)n2Cc2ccccc2)cc1Cl | 10 | 1.0% | -6 | -3 | 10 | 1 | 12%
CC(NC(=O)CCC(=O)N1CCN(S(=O)(=O)c2ccc(Cl)cc2)CC1)c1ccccc1 (stereo not given) | -4 | -0.2% | -6 | -2 | 3.1 | -6 | -1%
C=CCNC(=S)NC(=O)c1ccc(C)c(Br)c1 | -17 | 1.3% | -6 | 4 | 1.6 | -3 | -8%
CCc1ccccc1N(C1=NCCCS1)S(=O)(=O)c1ccc(C(C)(C)C)cc1 | 3 | 0.7% | 7 | 0 | 0.2 | -2 | -7%
O=C(C1CCC(=O)N(C2CC2)C1)N1CCC(Oc2ccccc2F)CC1 (stereo not given) | 5 | 0.2% | -1 | 6 | -4.2 | 4 | -8%
O=C(Cn1cnc2ccccc21)OCC(=O)N1CCCc2ccccc21 | -9 | 1.3% | 4 | 3 | -1.1 | 2 | 5%
CCc1ccc(NC(=O)NCc2ccc3c(c2)OCO3)cc1 | -2 | 2.8% | 1 | -1 | -3.2 | -4 | 6%
Cc1cc(C)cc(C(=O)NCC(=O)OCC(=O)N(C)C2CCS(=O)(=O)C2)c1 (stereo not given) | -1 | 0.7% | 10 | 13 | -3.1 | -17 | 8%
O=C(N/N=C/c1cn(Cc2ccccc2)c2ccccc12)c1cc(O)cc(O)c1 | 18 | 0.4% | -16 | -26 | -7.0 | 7 | -7%
SMILES | TRPV1 PAM | PINK1 expr mod | Six1-Eya2 blk | CtBP-E1A blk | D2 ag | D2 potentiator | Sfp PPTase inh
CCOC(=O)N1CCN(C(=O)C(C)c2ccc([N+](=O)[O-])cc2)CC1 (stereo not given) | -6 | -0.8% | -6 | 5 | -0.2 | -3 | 8%
COc1cccc(NC(=O)CSc2nnc3cc(C)nc(N)n23)c1 | 10 | 0.9% | 4 | -18 | 6.6 | 9 | -4%
C#CCOCCOCCOCCNc1nc(N2CCN(C(=O)[C@H](CCC(=O)O)n3cc([C@@H](N)CCCCN)nn3)CC2)nc(N2CCN(C(=O)[C@H](CCCCN)n3cc([C@@H](N)CC(N)=O)nn3)CC2)n1 | . | 1.3% | -16 | -17 | -5.2 | -5 | .
COC(=O)c1ccccc1NC(=O)COc1ccc(S(=O)(=O)N2CCCC2)cc1C | 19 | 5.2%[38.3 µM] | -15 | -17 | -0.7 | -3 | -9%
Cn1nc(SCC(=O)O)sc1=S | 24 | 2.2% | 1 | 8 | 14 | 7 | 23%
Cc1ccc(Oc2nc3ccccn3c(=O)c2/C=C(\C#N)C(=O)NC2CCS(=O)(=O)C2)c(C)c1 (stereo not given) | -6 | 3.5% | -7 | . | 1.8 | 2 | 14%
O=C(NNS(=O)(=O)c1ccc(Cl)cc1Cl)c1cc2ncc(C(F)(F)F)cc2s1 | 17 | 1.2% | 3 | 3 | -3.4 | -5 | 6%
COc1cccc(Nc2ncccc2C(=O)NCc2ccccc2)c1 | 16 | 0.5% | -8 | -4 | -2.5 | 6 | -2%
Oc1cccc(Nc2nc(-c3ccccc3)nc3ccccc23)c1 | -8 | 0.9%&0.7% | -10 | -11 | 1.9 | -10 | -10%
CCC(=O)N1CCc2cc(S(=O)(=O)NCCC(=O)NCc3ccccc3OC)ccc21 | 1 | -1.6% | 1 | -1 | 1.7 | 4 | 7%
C=CCN(CC=C)C(=O)CN1C(=O)NC(Cc2c[nH]c3ccccc23)C1=O (stereo not given) | 3 | -1.3% | -1 | 5 | 4.4 | -2 | 10%
CC(C)CNC(=O)c1cccc2c(-c3cccc(C(N)=O)c3)coc12 | . | 1.2% | ? | ? | 7.0 | 6 | .
CCOc1ccccc1OCCOCCOc1ccccc1[N+](=O)[O-] | ? | 0.7% | 10 | 2 | 1.0 | -12 | -6%
CCn1c(CN2CCN(C(c3ccccc3)c3ccccc3)CC2)nc2c1c(=O)n(C)c(=O)n2C | -1 | 0.1% | -9 | -6 | 1.9 | -1 | -9%
COc1cc(CNC2CCCC2)cc(Cl)c1OCc1ccccc1F | -9 | 23%[38.3 µM] | 3 | -7 | -1.6 | -13 | 0%
COc1ccc(C(=O)NCC(=O)OCC(=O)Nc2cccc(S(=O)(=O)N3CCCC3)c2)cc1 | -6 | -0.7% | 0 | -24 | -2.3 | -14 | -8%
CCCCn1c(=N)n(CC(=O)C(C)(C)C)c2ccccc21 | -18 | 3.6% | -13 | -6 | -3.0 | -21 | -13%
Clc1ccc(-c2noc3c2-c2nc(Cc4cccc5ccccc45)sc2CC3)cc1 | 1 | 4.4% | 1 | -6 | -1.6 | -31 | .
CN1CCN(C(=O)c2cc(S(=O)(=O)Nc3ccccc3F)c(Cl)cc2Cl)CC1 | -4 | -0.9% | 6 | -5 | 0.8 | -2 | 6%
COc1ccc(/C=C/C(=O)Nc2ccccc2C(F)(F)F)cc1 | -6 | 5.9% | 0 | -1 | -0.5 | -10 | 8%
Cn1c(SCC(=O)NCC2CCCO2)ncc(C(=O)Nc2ccc(F)cc2)c1=O (stereo not given) | 4 | 7.0% | 5 | 2 | -5.0 | -23 | .
COc1ccc(/C=C2/SC(=O)N(CCNC(=O)C3CC(=O)N(Cc4ccccc4)C3)C2=O)cc1 (stereo not given) | . | -2.0% | 2 | -1 | 0.1 | -14 | .
Cc1ccc2cc(C#N)c(SCC(=O)N3CCCc4ccccc43)nc2c1 | 1 | 6.7% | 9 | 18 | 0.5 | -14 | 9%
O=C(c1cc(COc2ccc(F)cc2Cl)on1)N(CCO)Cc1cccs1 | -3 | 3.1% | 0 | 0 | 0.8 | -16 | 0%
CCOc1ccc(NC(=O)CN2C(=O)COc3ccc(S(=O)(=O)N4CCCC4)cc32)cc1 | 11 | 2.0% | 0 | 0 | 4.6 | 0 | 16%

Fetched by compound from the list above (2):
SMILES | TRPV1 PAM | PINK1 expr mod | Six1-Eya2 blk | CtBP-E1A blk | D2 ag | D2 potentiator | Sfp PPTase inh
CN1CCN(C(=O)c2cc(S(=O)(=O)Nc3ccccc3F)c(Cl)cc2Cl)CC1 | -4 | -0.9% | 6 | -5 | 0.8 | -2 | 6%
CCCCn1c(=N)n(CC(=O)C(C)(C)C)c2ccccc21 | -18 | 3.6% | -13 | -6 | -3.0 | -21 | -13%

(further entries)
SMILES | TRPV1 PAM | PINK1 expr mod | Six1-Eya2 blk | CtBP-E1A blk | D2 ag | D2 potentiator | Sfp PPTase inh
CC1(C(=O)NS(C)(=O)=O)CCN1C(=O)Cc1ccc(Cl)cc1Cl (stereo not given) | . | 0.3% | 6 | 9 | -5.2 | 1 | .
COc1ccc(CN(CC(O)COc2cccc3[nH]cc(C)c23)C(C)(C)C)cc1 (stereo not given) | -13 | 10% | -21 | . | -8.8 | -16 | 6%
CCN(CC)CCn1c(NCc2ccc3c(c2)OCO3)nc2ccccc21 | -10 | -2.4% | -9 | -8 | -1.4 | -10 | -6%
O=C(CCc1ccccc1)NNC(=O)c1ccccc1C(=O)O | -6 | ? | -4 | 15 | -0.5 | -1 | 2%
N/C(Cc1ccccc1Sc1ccccc1)=N\O | 10 | 0.8% | 4 | 6 | 3.9 | -20 | 6%
CCc1cc(-c2nnn(CCC3COCCO3)c2CC)cc(CC)c1-c1cn(Cc2ccc3ccccc3c2)nn1 (stereo not given) | . | -2.1% | -4 | -6 | -1.7 | -3 | .
CCCCOc1ccc(-c2nnn(CCC(=O)N3CCOCC3)n2)cc1 | -10 | -0.8%[38.3 µM] | 1 | 3 | 4.2 | 10 | 6%
Cc1cc2c(Nc3ccc(O)cc3)ncnc2s1 | -2 | 0.4% | -2 | -1 | -1.2 | -1 | 1%
CC(C)C(C)NC(=O)COc1ncnc2sccc12 (stereo not given) | 9 | 0.1% | 2 | 15 | 1.4 | -7 | 21%
N#Cc1ccc(CSc2nnc(-c3ccccn3)n2-c2ccc(Cl)cc2)cc1 | -13 | -0.8% | -5 | -10 | -2.9 | -7 | 10%
CN(CC(=O)NC(=O)NC(C)(C)C)CC(=O)Nc1ccccc1Cl | -22 | -0.4% | -7 | -13 | -1.5 | -12 | 2%
